Bioassay records as filed in PubChem BioAssay.
HTT promoter inh – inhibitors of huntingtin promoter activity | HEK293 HTT promoter firefly luciferase reporter (activity 0% = vehicle and -100% = no light), 24 h | Potency, µM (top dose mostly 57.5 µM), for inactives: top-dose activity change, negative = inhibition, most hits filed as inhibitors | actives 0.93% (n = 48,000) | AID 1508623; active = well fitted inhibition curve with a large enough effect; inconclusive = small, poorly fitted or top-dose-only effect; inactive = no such curve, though single readings can be large or run the other way; also: nearly all actives have a fitted effect of over 50% in size
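Quantitative HTS used concentration series of up to 57.5 uM final on HEK293 luciferase reporter cells, 24 h at 37 degrees C. Readout was Dual-Glo firefly luminescence.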
PMP22 txn – PMP22 gene transcription modulation; Potency, µM (series often up to 57.5 µM), for the others: at the top dose activity change, negative = inhibition, hits mostly inhibitors; S16 Pmp22-F2sN Schwann cells (luciferase reporters placed in the Pmp22 gene), FLuc/NLuc coincidence luminescence, 24 h; actives 2% (n = 43,000); active = clear falling dose curves in both reporters; inconclusive = both reporters move, but less clearly or upward; inactive = either reporter flat; the % is the NLuc reporter signal; also: % is scaled to controls: 0 for no effect and ±100 for the full control effect; some results filed as inactive show a strong effect at the top dose
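Rat S16 Pmp22-F2sN cells, 500-1,000/well in phenol red-free DMEM + 10% FBS, compound-treated 24 h (37C, 5% CO2). Luminescence: FLuc read, Stop&Glo added, NLuc read.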
* hit, by the source's call; ? = inconclusive; · = not tested or not shown; & = joins results of further samples; [ ] = remark or other dose. Potency is read from the fitted curve at half-maximal effect. Only part of the results is shown; count on the stated rates, not on these rows.

Value order: HTT promoter inh | PMP22 txn
Cc1cc(C)cc(-n2c(C)nc3cc(C(=O)NCc4ccccc4Cl)ccc32)c1
 : -1% | -3%
O=c1c(S(=O)(=O)c2ccccc2)cn(Cc2ccccc2)c2cc(N3CCOCC3)c(F)cc12
 : ? | -23%
COc1ccc(-n2c(-c3cccc(F)c3)nc3c(cnn3-c3ccc(C)cc3)c2=O)cc1
 : -27% | ?
O=C(CC1C(=O)N(c2ccccc2)C(=O)N1Cc1ccc2c(c1)OCO2)Nc1ccccc1 (configuration not stated)
 : -21% | 12%
Cc1ccc(OCC(=O)Nc2nonc2-c2ccc(Br)cc2)cc1
 : -23% | 11%
COc1cc2c(C(=O)N3CCN(c4cccc(C(F)(F)F)c4)CC3)cn(CC(C)C)c(=O)c2cc1OC
 : ? | ?
Cc1c(CNCc2ccc(OC(C)C)cc2)c(C(=O)O)c(C)n1Cc1ccc(Cl)cc1
 : 18% | -21%
CCCS(=O)(=O)c1nc(S(=O)(=O)c2ccc(C)cc2)c(NCC(C)C)s1
 : -21% | 5%
COc1cccc2c1cc1c(=O)n(CC(=O)N3CCN(c4ccccc4)CC3)nc(C)n12
 : -1% | -11%
Cc1cccc(NS(=O)(=O)c2ccc3[nH]c(=O)ccc3c2)c1C
 : -16% | -33%
CCOc1ccc(NC(=O)CC2C(=O)N(c3ccc(OC)cc3)C(=O)N2CCC2=CCCCC2)cc1 (configuration not stated)
 : ? | 3%
COc1ccc(CN(C(=O)Nc2cccc(OC)c2)C2CCN(C(C)=O)CC2)cc1
 : -19% | -16%
COc1ccc(CNC(=O)C2=Cc3cccc(OC)c3OC2)cc1OC
 : -24% | 3%
O=C(O)c1cn(C2CC2)c2cc(N3CCNCC3)c(F)cc2c1=O
 : 4%&-3% | ·
COc1ccc(CCNc2nc3cc(OC)c(OC)cc3c3nc(-c4ccccc4)nn23)cc1OC
 : -32% | ?
COc1ccc(NC(=O)CSc2cn(CCNC(=O)c3c(F)cccc3F)c3ccccc23)cc1
 : ? | ?
Cc1cc(-c2ccc(C)c(S(=O)(=O)Nc3ccc(C)c(N(C)C)c3)c2)on1
 : ? | -13%
COc1ccccc1NC(=O)C1=C(C)Nc2nc(SCc3cc(C)ccc3C)nn2C1c1ccccc1 (configuration not stated)
 : 14% | 17µM*
N#C/C(=C\c1ccccc1)c1nc(-c2cc3cc(Br)ccc3oc2=O)cs1
 : -28%[11.5 µM] | 1%
CCOC(=O)c1cccc(NC(=O)Nc2ccc3c(c2)N(C)C(=O)c2ccccc2S3)c1
 : ? | ?
Cc1cccc(CNC(=O)c2ccc(N3Cc4ccccc4Oc4ncccc43)s2)c1
 : ? | ?
CCOc1ccccc1CNC(=O)CN1C(=O)c2cccnc2Oc2ccc(C)cc21
 : -19% | -4%
COc1ccc2oc(-c3ccc(C)c(NC(=O)COc4cc(C)cc(C)c4)c3)nc2c1
 : 6% | ?
COc1ccc(NC(=O)c2sc3nc(C)c(C(=O)Nc4ccc(C)cc4C)c(-c4ccccc4Cl)c3c2N)cc1
 : -24% | -6%
COc1ccccc1N1CCN(C(CNC(=O)C(=O)NCc2ccc(C)cc2)c2cccnc2)CC1 (configuration not stated)
 : 11µM* | -102%
CCCS(=O)(=O)c1ncc(Cl)c(C(=O)N(Cc2ccccc2)Cc2ccco2)n1
 : ? | 6.4µM*
COc1ccc(C(=O)c2sc(Nc3ccccc3)nc2N)cc1
 : -5% | -26%
O=C(Nc1ccc2nc(SCC(=O)N3CCOCC3)sc2c1)c1cccc(Cl)c1
 : ? | -8%
CC(C)(O)[C@H]1CC[C@@](C)([C@H]2[C@@H](O)C[C@@]3(C)[C@@H]4C[C@H](O[C@@H]5O[C@H](CO)[C@@H](O)[C@H](O)[C@@H]5O)[C@H]5C(C)(C)[C@@H](O[C@@H]6OC[C@@H](O)[C@H](O)[C@@H]6O)CC[C@@]56C[C@@]46CC[C@]23C)O1
 : -1% | ·
COc1ccc(S(=O)(=O)n2nc(-c3ccco3)nc2NCc2ccc(C(C)C)cc2)cc1
 : -27% | 1%

Laid out differently: entries from further up
> Cc1cccc(NS(=O)(=O)c2ccc3[nH]c(=O)ccc3c2)c1C
  HTT promoter inh: -16%
  PMP22 txn: -33%
> COc1ccccc1N1CCN(C(CNC(=O)C(=O)NCc2ccc(C)cc2)c2cccnc2)CC1 (configuration not stated)
  HTT promoter inh: 11µM*
  PMP22 txn: -102%
> CCCS(=O)(=O)c1nc(S(=O)(=O)c2ccc(C)cc2)c(NCC(C)C)s1
  HTT promoter inh: -21%
  PMP22 txn: 5%
> COc1ccc(NC(=O)c2sc3nc(C)c(C(=O)Nc4ccc(C)cc4C)c(-c4ccccc4Cl)c3c2N)cc1
  HTT promoter inh: -24%
  PMP22 txn: -6%

2 entries from above, with each value named.
molecule: CCCS(=O)(=O)c1nc(S(=O)(=O)c2ccc(C)cc2)c(NCC(C)C)s1
  HTT promoter inh: -21%	PMP22 txn: 5%
molecule: COc1cccc2c1cc1c(=O)n(CC(=O)N3CCN(c4ccccc4)CC3)nc(C)n12
  HTT promoter inh: -1%	PMP22 txn: -11%

(more compounds)
Value order: HTT promoter inh | PMP22 txn
CCc1ccc(CNC(=O)C2CCN(c3nn4cc(-c5ccc(OC)cc5)nc4s3)CC2)cc1
 : 4% | -2%
CCOC(=O)c1ccc(Nc2c(-c3ccc(OC)cc3)nc3nc[nH]n23)cc1
 : -15% | ?
O=C(NCC1CCN(Cc2cccc(Cl)c2)CC1)Nc1ccc(F)c(Cl)c1
 : ? | -33%
COc1cc(OC)c(NC(=O)CCn2cnc3onc(-c4ccc(F)cc4)c3c2=O)cc1Cl
 : 0% | ?
Nc1nnc(SCC(=O)Nc2ccccc2)s1
 : 16% | 6%
O=C(NCCc1ccccc1)c1cc(Nc2ccccc2)nc2ccccc12
 : -14% | -21%
COc1ccc(CCNC(=O)CCCCn2c(=O)c3ccccc3n(CC(=O)Nc3c(C)cccc3C)c2=O)cc1OC
 : -7% | ?
CCC(=O)Oc1c(Sc2ccc(Cl)cc2)c(C)nn1C(C)(C)C
 : ? | 4%
Cc1[nH]c(C=C2C(=O)Nc3ccc(S(=O)(=O)Cc4c(Cl)cccc4Cl)cc32)c(C)c1C(=O)N1CCC[C@H]1CN1CCCC1
 : -2% | ·
COc1ccc(C(=O)NCc2nnc(SCC(=O)Nc3ccccc3)n2-c2ccccc2)cc1
 : -2% | 0%
COc1ccc(OC)c(C(C)NC(=O)Cn2c(=O)cc(C)c3c(C)nn(-c4ccc(C)cc4)c32)c1 (configuration not stated)
 : -2% | 1%
CCOc1ccc(CCNC(=O)Cn2c(-c3cccs3)cc3cc(F)ccc32)cc1OCC
 : ? | ?
O=C1C(c2cccc(Br)c2)N(CCc2ccccc2)C(=O)CN1C1CCCCC1 (configuration not stated)
 : -11% | -2%
CCCCN(CC)C(=O)CSc1nc2n[nH]c(C)c2c(=N)n1-c1cccc(Cl)c1
 : ? | 13µM*
CC(=O)N1CCCc2cc(S(=O)(=O)N3CCCC(C(=O)NCc4ccccc4)C3)ccc21 (configuration not stated)
 : ? | -27%
O=C(OCc1ccccc1Cl)c1ccc(-c2nnn(Cc3ccccc3)n2)cc1
 : 10% | -14%
CCOC(=O)c1[nH]c2ccccc2c1NC(=O)c1ccc(OCC)cc1
 : -4% | -39%
Cc1ccc2oc(=O)c3cnn(CC(=O)N4CCN(c5ccccc5)CC4)c3c2c1
 : 7% | -19%
CCC(=O)N1CCc2cc(S(=O)(=O)NCCC(=O)Nc3cccc(SC)c3)ccc21
 : -18% | -22%
CCOc1ccccc1CNC(=O)CN1C(=O)C2CCCCN2c2ccc(C(=O)N(C)C)cc21 (configuration not stated)
 : -8% | -10%
Cn1c(-n2cccc2)c(-c2c(-c3ccc(F)cc3)[nH]c3c2c(=O)[nH]c(=O)n3C)c(=O)[nH]c1=O
 : 2% | -2%
COC(=O)c1ccc(OCC(O)Cn2cnc3cc(C)c(C)cc32)cc1 (configuration not stated)
 : -12% | -27%
CCCn1c(=O)c2sccc2n2c(CCCC(=O)N3CCN(c4cccc(Cl)c4)CC3)nnc12
 : -12% | -16%
CCCN(CCC)CCCNC(=O)Cn1cnc2onc(-c3ccc(F)cc3)c2c1=O
 : -6% | -48%
CCCCn1c(=O)n(-c2ccc(Br)cc2F)c(=O)c2c3c(sc21)CN(C(C)=O)CC3
 : -26% | ?
CCc1nn2c(=O)cc(COC(=O)c3ccccc3NC(=O)COc3ccc(F)cc3)nc2s1
 : -4% | -3%
COc1cccc([C@@H]2Nc3ccc(C(=O)O)cc3[C@@H]3C=CC[C@@H]32)c1OC
 : -14% | 14%
O=C(C1CCN(c2ncnc3c2nc2n3CCCCC2)CC1)N1CCN(c2cccc(Cl)c2)CC1
 : ? | ?
CC1=C(C)C(=O)C(CCCCC#CCCCC#CCO)=C(C)C1=O
 : -18% | ·
O=C(COc1ccccc1Cl)OCc1cc(=O)n2nc(C3CCCCC3)sc2n1
 : -10% | -54%
Clc1ccc(-c2nc3ccccn3c2Nc2ccc3c(c2)OCCO3)s1
 : 14% | -6%
CCc1ccc2oc(C(=O)Nc3cccc(Cl)c3C)cc(=O)c2c1
 : -10% | -12%
CCc1cc2c(cc3c(=O)n(CC(=O)NC(C)C)nc(CC)n32)s1
 : 0% | -1%
CSc1ncc(C(=O)NCc2cccc(Br)c2)c(-c2ccccc2)n1
 : -2% | -1%
COc1ccc(N2CCN(C(=O)c3cc(S(=O)(=O)N4CCCCCC4)cn3C)CC2)cc1
 : -16% | -11%
O=C(CSC1=Nc2ccccc2N=C(c2ccc(F)cc2)C1)NCc1ccccc1Cl
 : -25% | ?
COc1ccc(-n2nc(C(=O)O)c(=O)n(C)c2=O)cc1
 : -2% | 1%
CCc1ccccc1NC(=O)c1ccc2c(c1)nnn2C1CCCC1
 : -10% | -16%
CC(=O)N1CCc2c(sc(NC(=O)CSc3ccccc3)c2-c2nc3ccccc3s2)C1
 : ? | 4µM*
NC(=O)CSc1nc2cc3c(cc2c(=O)n1CCCCCC(=O)NCc1ccc2c(c1)OCO2)OCO3
 : -10% | 2%
O=C(C1CC1)N1CCc2cc(Br)cc(S(=O)(=O)N3CCN(c4cccc(Cl)c4)CC3)c21
 : -1% | -11%
COc1ccc(Cl)cc1N(C)C(=O)Cc1noc2ccc(C)cc12
 : -26% | 10%
CC(C)Oc1ccc(CNC(=O)C(C)n2ccc3cc(S(=O)(=O)N4CCCCCC4)ccc32)cc1 (configuration not stated)
 : ? | -28%
COc1ccc(Cl)cc1NC(=O)N1CCC2(CC1)Oc1ccccc1C(=O)N2Cc1ccc(F)cc1
 : -28% | 6%
CCc1ccc(C(=O)CC2(O)C(=O)N(CCc3ccccc3)c3ccc(Br)cc32)cc1 (configuration not stated)
 : ? | ?
CCOc1ccc(-n2nc(CO)c(C(=O)NCc3ccc(Cl)cc3)n2)cc1
 : 0% | 1%
CCOc1ccc(OCC)c(NC(=O)C2CCN(S(=O)(=O)c3ccc(Br)s3)CC2)c1
 : 2% | -3%
CCN(CC)c1cc2c(cc1F)c(=O)c(S(=O)(=O)c1cccc(C)c1)cn2C
 : -16% | ?
CCc1nn(CC(=O)Nc2ccc(C)c(F)c2)c(=O)c2cc3cc(C)ccc3n12
 : 27% | -8%
CCOC(=O)N1CCC(NC(=O)c2cnn(-c3ccc(C)cc3C)c2C2CCN(C(=O)OC(C)(C)C)CC2)CC1
 : -20% | -3%
COc1ccc(Nc2nc3ccccc3nc2NS(=O)(=O)c2ccc(C)cc2)c(OC)c1
 : -1% | -6%
O=C(NCc1ccc(Cl)cc1)c1ccc2c(Cl)c3c(nc2c1)CCCC3
 : -6% | ?
Cc1cccc(Cn2c(-c3cccc(Br)c3)nc3ccccc32)c1
 : -26% | -3%
CC(=O)c1cccc(Nc2c3c(nc4nc(-c5cccs5)nn24)CCCC3)c1
 : ? | 1%
Cc1cccc(N2CCN(C(=O)CCSCc3ccccc3F)CC2)c1C
 : 10% | -7%
COc1ccc(C(=O)Nc2nc3n(n2)C(c2ccc(Cl)cc2)C=C(c2ccccc2)N3)cc1OC (configuration not stated)
 : -8% | -41%
COc1ccc(-c2nc3nc(C)cc(N4CCN(c5cccc(C(F)(F)F)c5)CC4)n3n2)cc1
 : -8% | -4%
Cc1ccc(NC(=O)CCCn2c3ccccc3c(=O)c3cc(C)ccc32)c(Br)c1
 : ? | ?
Cc1cccc(Nc2c(-c3ccsc3)nc3nc(C)cc(C)n23)c1
 : -6% | -11%
CC(C)n1cnc(S(=O)(=O)N2CCCC(C(=O)NCc3ccccc3Cl)C2)c1 (configuration not stated)
 : -26% | 7%

Next section:
Value order: HTT promoter inh | PMP22 txn
CN1C(=O)Cc2cc(S(=O)(=O)NCCc3ccccc3)ccc21
 : -1% | -10%
COc1ccc(-n2cc(C(=O)NCc3ccccc3Cl)c3ccccc3c2=O)cc1
 : -8% | -24%
Cc1ccc(S(=O)(=O)C(CNC(=O)C(=O)NCCc2ccc(Cl)cc2)c2cccs2)cc1 (configuration not stated)
 : ? | -15%
Cc1ccc(Cl)cc1N1CCN(CCCNc2ncnc3onc(-c4ccc(F)cc4)c23)CC1
 : -6% | 18µM*
